Compound activity: PubChem BioAssay, Vanderbilt University
GIRK2 activ: opens human GIRK2 potassium channels | 0.05% of 63,000 active | calls only for hits at 25 µM | HEK293-GIRK2 thallium flux, Thallos fluorescence;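 active means among the strongest 0.2% of first-round signals and kept after retests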;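 further: first round at about 10 µM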
Target sequence (P48051 whole entry, looked up): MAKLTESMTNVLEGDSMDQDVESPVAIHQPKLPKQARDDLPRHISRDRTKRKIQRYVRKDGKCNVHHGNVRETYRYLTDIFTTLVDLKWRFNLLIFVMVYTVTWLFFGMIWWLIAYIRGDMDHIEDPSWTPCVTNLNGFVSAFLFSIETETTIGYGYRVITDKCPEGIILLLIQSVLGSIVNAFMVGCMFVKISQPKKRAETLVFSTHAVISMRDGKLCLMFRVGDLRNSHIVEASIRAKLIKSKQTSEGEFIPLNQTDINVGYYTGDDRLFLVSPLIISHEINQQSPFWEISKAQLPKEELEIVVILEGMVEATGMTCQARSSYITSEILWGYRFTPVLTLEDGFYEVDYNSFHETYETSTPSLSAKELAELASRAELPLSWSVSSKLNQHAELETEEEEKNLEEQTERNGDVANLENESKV
Calls only; i = inactive.

GIRK2 activ | Structure
i | Cc1cc(NC(=O)CSc2cc(-c3ccccc3)ncn2)no1
i | COc1cccc2sc(OC3CN(C(C)=O)C3)nc12
i | CCCCn1c(-c2ccc(OC)cc2)cn2c3c(=O)[nH]c(=O)n(C)c3nc12
i | CCc1cc(CC)n(-c2nc3c(c(=O)[nH]c(=O)n3C)n2Cc2ccc(OC)cc2)n1
i | Cc1cc(NC(=O)C2CCN(C(=O)c3cc(-c4ccc5c(c4)OCO5)n[nH]3)CC2)no1
i | COc1ccc(-c2cc(=O)n(CC(=O)Nc3nc4ccccc4s3)cn2)cc1
i | O=C(NCCC(O)c1ccc2c(c1)OCO2)c1ccoc1 (centres undefined)
i | CN1CCN(Cc2cc(=O)oc3cc(O)c(Cl)cc23)CC1
i | CC/C=C\C/C=C\C/C=C\CCCCCCCC(=O)OCC(COP(=O)(O)OCCN)OC(=O)CCCCCCCCCCCCCCC (centres undefined)
i | CS(=O)(=O)C1CCN(C(=O)NCc2ccc(Cl)cc2)CC1
i | CCOc1ccc(C(=O)Nc2ccc3c(c2)N(S(=O)(=O)c2ccc(C)cc2)CCC3)cc1
i | C=CCSc1nnc(-c2ccccc2NC(=O)c2ccc(C)c(S(=O)(=O)N3CCCC3)c2)o1
i | CCN1N=C(c2ccc(F)cc2)Cn2c1nc1c2c(=O)n(CC)c(=O)n1C
i | COc1cccc(CCNC(=O)C2CCN(c3ccc(-c4cccnc4)nn3)CC2)c1
i | COC(=O)c1ccc2c(=O)n(-c3ccc(C(=O)NCc4ccccc4OC)cc3)c(=S)[nH]c2c1
i | CC(C)(Oc1ccc(Cl)cc1)C(=O)NCCCS(=O)(=O)N1CCN(c2ccccn2)CC1
i | O=C(Cn1nc(C(=O)N2CCOCC2)cc1-c1cccs1)Nc1ccc2c(c1)OCO2
i | CCCCNC(=O)c1ccc(-n2ccnc2SCC(=O)Nc2ccc(OC)cc2)cc1
i | CCC(C)NCC(O)COc1cccc(OC)c1 (centres undefined)
i | COc1ccc(S(=O)(=O)NCCNC(=O)c2ccc(NC(C)=O)cc2)cc1F
i | COc1ccccc1C(=O)NNC(=O)c1cc2cc(Cl)ccc2oc1=O
i | CCOC(=O)c1c(NCc2ccccc2F)c2ccc(Cl)cc2[nH]c1=O
i | COC1=CC2N=C(N3CCCN(C)CC3)NC(=NC3CCN(Cc4ccccc4)CC3)C2C=C1OC (centres undefined)
i | Cc1noc(-c2cccnc2N2CCC(NC(=O)c3ccco3)C2)n1 (centres undefined)
i | O=C(c1ccc(OCc2nc(C3CC3)cs2)cc1)N1CCc2ccccc21
i | COc1ccc(CC(=O)Nc2ccc(Cn3cnc(C(=O)Nc4ccccc4)c3)cc2)cc1OC
i | O=C(/C=C/c1ccccc1Cl)NCC1CCN(c2ccccn2)CC1
i | O=C(OC1CN(c2nc3c(Cl)cccc3s2)C1)c1cc(C2CC2)on1
i | O=c1[nH]c2nc(NCCc3ccccn3)ncc2c(=O)n1Cc1ccccc1
i | COc1ccc(C2NC(=S)NC(C)=C2C(=O)Nc2ccc(C)c(C)c2)cc1OC (centres undefined)
i | COc1cccc2cc(C(=O)NCC(c3ccc4c(c3)CCO4)N(C)C)oc12 (centres undefined)
i | COC(=O)c1ccc(OC(=O)C23CCC(C)(C(=O)C2)C3(C)C)cc1 (centres undefined)
i | Cc1cc2nn(CC(=O)Nc3cccc(F)c3)c(=O)n2c(Nc2ccc(F)c(C)c2)n1
i | COc1cccc(C(=O)c2oc3ccccc3c2NC(=O)c2ccco2)c1
i | CCOc1cc(C2NC(=O)NC(C)=C2C(=O)Nc2cccc(Cl)c2)ccc1O (centres undefined)
i | Cn1c(CN2CCN(S(=O)(=O)/C=C/c3ccccc3)CC2)nc2ccccc21
i | COc1ccc(NC(=O)C2CCN(c3c(C#N)cnc4ccc(F)cc34)CC2)cc1
i | O=C(COc1ccc2ccccc2c1)N1CCC(Oc2ccc(Cl)cn2)CC1
i | CCOc1ccccc1-n1nnc(C(=O)Nc2ccc(OC)cc2)c1C
i | O=C(Nc1cnoc1)C1CC=CCC1 (centres undefined)
i | O=C(NCC(=O)N1CCN(c2ccc(F)cc2)CC1)c1ccc(=O)[nH]c1
i | Cc1cc(C)n(CC(C)C(=O)Nc2ccc(F)cc2)n1 (centres undefined)
i | CCOC(CNC(=O)C1CN(C(C)=O)C1)OCC
i | COCCn1c(SCc2nc(-c3ccc(OC)cc3)no2)nc2cc3c(cc2c1=O)OCO3
i | O=C(c1cc(=O)c2ccccc2o1)N1CCN(Cc2nnnn2-c2ccccc2)CC1
i | Cc1cc(N2CCN(C/C=C/c3ccccc3)CC2)n2nc(C(F)(F)F)nc2n1
i | Cc1cc2ncn(CC3CCN(C(=O)c4cccc(Cl)c4)CC3)c2cc1C
i | CCOC(=O)[C@H](CCc1ccccc1)N[C@H]1CCc2ccccc2N(CC(=O)O)C1=O
i | CN(C)c1ccc(N2C(=O)c3cccc4cccc(c34)C2=O)cc1
i | COc1ccc2c(c1)CCN(C(=O)CN(C)c1nc3ccccc3s1)C2
i | CN1C(=O)C2C3c4ccccc4C(c4ccccc43)C2C1=O (centres undefined)
i | CCCCn1c(=O)c2c(nc3n2C(C)C(C)=NN3CC(N)=O)n(C)c1=O (centres undefined)
i | COc1cccc(CNC(=O)CSc2n[nH]c(=O)c3cc(-c4ccco4)nn23)c1OC
i | O=C(NCCc1ccc(F)cc1)c1nnn(-c2ccc(OC(F)(F)F)cc2)n1
i | CN(C)C(CNC(=O)c1cc(-c2ccccc2)on1)c1ccc2c(c1)CCO2 (centres undefined)
i | COc1cc(OC)cc(C(=O)N2CCC(CSC3=NCCS3)CC2)c1
i | COc1ccc(/C=C2\Oc3cc(OCC(C)=O)ccc3C2=O)cc1
i | CCCCCn1c(SCC(=O)OCC)nc2cc(C(=O)N(C)Cc3ccccc3)ccc2c1=O
i | COc1ccc(NC(=O)CN2CCC(C(=O)Nc3ccc(-n4cnnn4)cc3)CC2)c(OC)c1
i | Cc1nn(-c2ccc(F)cc2)c2ncc(C(=O)N3CCN(c4ccccc4)CC3)c(Cl)c12

Going on with the list:
GIRK2 activ | Structure
i | Cc1cc([N+](=O)[O-])ccc1NC(=O)c1cccc(S(=O)(=O)N2CCOCC2)c1
i | Cc1cccc(CS(=O)(=O)NCCC(O)C(C)(C)C)c1 (centres undefined)
i | COc1cccc(N2CCN(C(=O)CCCn3c(=S)[nH]c4cc5c(cc4c3=O)OCO5)CC2)c1
i | O=C1CCSCC(C(=O)N2CCN(C3CCCCC3)CC2)N1 (centres undefined)
i | O=C1COc2cc(Cl)ccc2N1Cc1nc(-c2ccc(OC(F)(F)F)cc2)no1
i | COC(=O)CSc1nc2c(c(=O)n(C)c(=O)n2C)n1Cc1ccc(F)cc1
i | COc1ccc(NC(=O)c2ccc(Oc3nccnc3N3CCOCC3)cc2)cc1
i | COc1cccc(CNC(=O)c2nnn(-c3ccc(F)cc3)n2)c1
i | COCCN(Cc1ccsc1)C(=O)c1ccccc1SC
i | Cc1ccc(NC(=O)Cn2nc3c4cc(F)ccc4ncn3c2=O)cc1C
i | O=C(CN1CCN(C(=O)c2cc(-c3ccc(F)cc3)n[nH]2)CC1)c1cccs1
i | COc1ccccc1N1CCN(c2cc(SCC(=O)Nc3ccc(C)cc3Cl)ncn2)CC1
i | Cc1cc(C(=O)N2C3CCC2COC3)c(C)o1
i | CCOC(=O)NC(C)Cc1ccco1 (centres undefined)
i | CN(C)c1cccc(C(=O)NCc2cc(-c3ccncc3)n(C3CCCC3)n2)c1
i | Cc1ccn(-c2ccc(C(=O)NCc3cc(F)cc(F)c3)cn2)n1
i | COC(=O)C1CCN(S(=O)(=O)c2ccc(N3C(=O)CCS3(=O)=O)cc2)CC1
i | CN(C)C(CNC(=O)c1ccc(OC(F)(F)F)cc1)c1cn(C)c2ccccc12 (centres undefined)
i | CC(C)Cn1c(=O)c2c(nc3n2CC(C)CN3c2ccccc2)n(C)c1=O (centres undefined)
i | CSc1ncc(Cl)c(C(=O)Nc2ccc(Br)cc2F)n1
i | CCC(CC)c1nnc(NC(=O)C=C(C)C)s1
i | O=C(CCC1NC(=O)c2ccccc2NC1=O)NC1=NCCS1 (centres undefined)
i | O=C(Cc1ccc(-c2ccccc2)cc1)NCCn1ncccc1=O
i | O=C(NCC1(O)CCCC1)C(=O)Nc1cccc(N2CCCC2=O)c1
i | O=C(Nc1ccc(S(=O)(=O)N2CCOCC2)cc1)c1cc2cc(Cl)ccc2oc1=O
i | NC(=O)c1ccccc1OCC#CCNC(=O)CC1CSc2nc3c(c(=O)n21)CCC3 (centres undefined)
i | CCCN(Cc1ccsc1)C(=O)C(C)Oc1ccccc1 (centres undefined)
i | Nc1nc(N2CCN(CCO)CC2)ncc1[N+](=O)[O-]
i | Cn1cc(CC(=O)NCCN2CCN(S(C)(=O)=O)CC2)c2ccccc21
i | COc1cc(C[C@H]2COC(=O)[C@@H]2Cc2ccc(O)c(OC)c2)ccc1O
i | CCc1nc(-c2ccc(-n3ccc(C(=O)N4CCN(c5ccccc5C)CC4)n3)cc2)no1
i | CCOc1ccc2nc(N(Cc3ccncc3)C(=O)Cc3ccc(F)cc3)sc2c1
i | Cc1nc(Nc2ccc(NC(=O)Cc3noc4ccccc34)cc2)cc(-n2cccn2)n1
i | COCC(C)(O)CNC(=O)C(=O)Nc1ccc(OC)cc1 (centres undefined)
i | O=C(Cn1cccn1)NCC#CCOc1cccc(C(F)(F)F)c1
i | CC1(C)OCC2(CO1)CN(C(=O)c1ccc(=O)[nH]c1)C2
i | NC(=O)C1CCN(Cc2cc(=O)oc3ccc(O)cc23)CC1
i | CCc1nnc(C2CCN(C(=O)c3ccc(Cl)s3)CC2)s1
i | CC(C)c1cnc2c(c1SCc1ccc([N+](=O)[O-])cc1)c(=O)n(C)c(=O)n2C
i | CCOc1ccccc1NC(=O)N1CCC(CSc2nc(C)cs2)CC1
i | COc1ccc(NC(=O)Cn2cccc(-c3nc(-c4ccc(Cl)cc4)no3)c2=O)cc1OC
i | COc1ccccc1-c1coc2c3c(ccc2c1=O)OCN(Cc1ccccc1Cl)C3
i | O=c1c2sccc2nc(SCc2nc(-c3ccccc3Cl)no2)n1C1CC1
i | O=C(Nc1ccc2c(c1)CCCN2C(=O)c1ccco1)c1cccc(Cl)c1
i | COc1cccc(-c2noc(C3CCCN(S(=O)(=O)c4ccc(C)cc4)C3)n2)c1 (centres undefined)
i | O=C(CSc1nc(-c2cccc([N+](=O)[O-])c2)cs1)N1CCOCC1
i | Cc1cc2nn(CC(=O)Nc3ccccc3F)c(=O)n2c(Nc2ccc(C)c(F)c2)n1
i | CC(=O)Nc1ccc(Nc2nc3c(S(=O)(=O)c4cccc(Cl)c4)nnn3c3ccsc23)cc1
i | Cc1cc(NC(=O)C2CCCC2)n(-c2nc3c(cnn3-c3ccc(Cl)cc3)c(=O)[nH]2)n1
i | CN(CC(=O)Nc1cccc(OC(F)F)c1)c1nc2c(F)cccc2s1
i | CC1c2cccc(O)c2C(O)=C2C(=O)[C@]3(O)C(O)=C(C(N)=O)C(=O)[C@@H](N(C)C)[C@@H]3C[C@@H]21 (some centres undefined)
i | COc1ccc(S(=O)(=O)NC2CCCCCC2)c2ccccc12
i | CCSC(N)=Nc1ccc(C(F)(F)F)cc1
i | O=C(c1nnn(-c2ccccc2F)c1-c1cccnc1)N1CCC2(CC1)OCCO2
i | O=C(Cc1cccs1)N1CCC2(CC1)OCCS2
i | Cc1ccc(-c2ccc3nnc(CCC(=O)NC4CCN(Cc5ccccc5)CC4)n3n2)cc1C
i | COC(=O)c1ccc(NC(=O)C2CCN(c3ccc(-c4ccco4)nn3)CC2)cc1
i | O=C(Nc1ccc2c(c1)N(C(=O)c1ccco1)CC2)c1cc2ccccc2oc1=O
i | Cc1cc(NC(=O)c2ccccc2Cl)n(-c2nc3c(cnn3-c3ccccc3)c(=O)[nH]2)n1
i | Cc1ccc2nc(C3CN(C(=O)C4CCN(S(C)(=O)=O)CC4)C3)[nH]c2c1

(listing goes on)
GIRK2 activ | Structure
i | CCOC(=O)c1ccc(Oc2c(C)oc3c4c(ccc3c2=O)OCN(C2CCS(=O)(=O)C2)C4)cc1 (centres undefined)
i | COc1cc(C)c(C(C)C)cc1S(=O)(=O)N1CCCC1
i | CN1CCCc2cc(CCNC(=O)C(=O)Nc3ccccc3)ccc21
i | CC1(C)Cc2cccc(OCC(=O)N(Cc3ccsc3)C3CC3)c2O1
i | Cn1nc(N2CCC(C(=O)Nc3ccncc3)CC2)ccc1=O
i | Cc1cc(C)cc(C(=O)N2CCC3(CC2)NC(=O)c2ccc(Cl)cc2N3)c1
i | COc1ccc(-c2coc3cc(OCCN4CCOCC4)ccc3c2=O)cc1OC

This is a subset; rates above refer to the full screens.
